Assay outcomes (PubChem BioAssay)
HTT prom inh = Primary qHTS for Identification of Small Molecule Inhibitors of Huntingtin Promoter Activity; HEK293 HTT promoter firefly luciferase reporter (activity 0% = vehicle and -100% = no light), 24 h; Potency, µM (series often up to 57.5 µM), for inactives: at the top dose activity change, negative = inhibition, most hits filed as inhibitors; actives 0.93% (n = 48,000); AID 1508623, 2021; active means well fitted inhibition curve with a large enough effect; inconclusive means small, poorly fitted or top-dose-only effect; inactive means no such curve, though single readings can be large or run the other way; further: nearly all actives have a fitted effect of over 50% in size
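HEK293 Fluc reporter, 2,500 cells/well, 24 h pre-culture; cpds up to 57.5 uM final, 24 h 37 degrees C; Dual-Glo, 10 min RT; normalized vehicle = 0%, zero RLU = -100%.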
PMP22 txn = Cell-based coincidence reporter assay to measure PMP22 gene transcription in S16 Pmp22-F2sN cells - Primary screen; S16 Pmp22-F2sN Schwann cells (luciferase reporters placed in the Pmp22 gene), FLuc/NLuc coincidence luminescence, 24 h; Potency, µM (titrated, usually from 57.5 µM), for inactives: at the highest dose activity change, negative = inhibition, most hits filed as inhibitors; actives 2% (n = 43,000); AID 1508649, 2021; active = clear falling dose curves in both reporters; inconclusive = both reporters move, but less clearly or upward; inactive = either reporter flat; the % is the NLuc reporter signal; further: on the % scale 0 is the no-effect control and ±100 the full control effect; some results filed as inactive show a strong effect at the top dose
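S16 Schwann cells carrying FLuc/NLuc coincidence reporter in the Pmp22 3' UTR treated with compound 24 h at 37C; FLuc then NLuc luminescence read sequentially by dual-luciferase reagents.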
* hit, by the source's call; ? = inconclusive; . = no result given; [ ] = another dose, or the depositor's remark. Potency means the concentration at half of the fitted maximal effect.

SMILES | PMP22 txn | HTT prom inh
CC1CCC2(CC1)N=C(c1ccccc1)C(=O)N2CC(=O)Nc1ccc(F)c(Cl)c1 (stereo unspecified) | ? | ?
O=C(Cn1cc(S(=O)(=O)Cc2cccc(Cl)c2)c2ccccc21)Nc1ccccc1C(F)(F)F | ? | -12%
CC(C)(C)c1ccc(C(=O)Nc2ccccc2C(=O)OCc2cc(=O)n3ccsc3n2)cc1 | -15% | 20%
COc1cccc(CCNC(=O)c2cnc3sc(N4CCCCCC4)nn3c2=O)c1 | -8% | -10%
COc1ccc(Cl)cc1NC(=O)Cn1ccn(-c2cc(C)cc(C)c2)c(=O)c1=O | ? | ?
O=C(Nc1cccc(Cl)c1)c1cnc2sc(N3CCCC3)nn2c1=O | -7% | ?
CCC1=Nc2cc(C(=O)NCCN(CC)CC)ccc2Sc2ccccc21 | 17µM* | -5%
Cc1ccc(-c2nc(Cn3c(SCc4ccc(F)cc4)nc4cccnc43)c(C)o2)cc1 | 7.4µM* | ?
CCN(C(=O)CSc1nc2ccccc2n1Cc1cc(C)ccc1C)c1ccccc1 | -32% | 0%
CCc1ccc(-n2nc3cc(C)c(NC(=O)c4ccccc4C)cc3n2)cc1 | -20% | 18%
CN(C)CC[C@H](c1ccc(Cl)cc1)c1ccccn1 | . | -5%
CCOc1ccc(CCNC(=O)c2c(C)oc3ncnc(N4CCOCC4)c23)cc1 | -5% | -14%
COc1ccc(OCCn2c(C)nc3cc(C)c(C)cc32)cc1 | -45% | -27%
COc1cccc(CNS(=O)(=O)c2ccc3[nH]c4c(c3c2)CCCCC4)c1 | ? | ?
COc1ccc(-c2nc3ccccc3n2Cc2ccccc2)cc1 | -40% | -30%
COc1ccc(NC(=O)c2ccc3c(c2)CCN3S(=O)(=O)c2ccc(C)cc2)cc1Cl | -9% | -9%
COc1ccccc1CNC(=O)c1ccc2nc(CCc3ccccc3)oc2c1 | -19% | -23%
Cc1ccc(N2C(=O)c3[nH]nc(-c4ccc(Cl)cc4)c3C2c2ccc(F)cc2)cc1 (stereo unspecified) | ? | ?
CCc1ccc(OCC(=O)Nc2ncn[nH]2)c(Br)c1 | -13% | 54%[activator]
O=C(NCc1ccccc1)c1ccc2oc(=O)n(Cc3ccccc3)c2c1 | -6% | ?
Cc1cccc(S(=O)(=O)c2cn(Cc3ccccc3)c3cc(N4CCC(C)CC4)c(F)cc3c2=O)c1 | 5% | -25%
Cc1ccc2c(c1)cc1c(=O)n(CC(=O)NC(C)CCc3ccccc3)nc(C)n12 (stereo unspecified) | -21% | -3%
COc1ccc(NC(=O)c2c(-c3ccccc3)c(-c3ccccc3)nn(C)c2=O)cc1OC | 0% | -7%
Clc1cccc(CSc2ccc(-c3cccs3)nn2)c1 | -7% | 14%
O=C(Nc1c(C(=O)c2ccc(Cl)cc2)oc2ccccc12)c1cc(=O)c2ccccc2o1 | -15% | -11%
COc1ccc(-c2cn3nc(N4CCCC(C(=O)NCc5ccccc5OC)C4)sc3n2)cc1 (stereo unspecified) | -8% | 32%
COc1cccc(CNC(=O)c2ccc3c(c2)nc2n3CCOC2)c1 | -3% | 1%
Cc1nnc(SCc2cc(=O)n3c(C)cccc3n2)s1 | ? | 46%[activator]
Cc1ccc2nc(-c3ccc(C)c(NC(=O)CSc4ccc(Cl)cc4)c3)oc2c1 | -13% | 15%
Oc1ccc(NCc2ccccc2OCc2ccccc2F)cc1 | 20µM* | -18%
COc1cc2c(cc1OC)C(COc1ccc3c(C)cc(=O)oc3c1)N(C(=O)c1cccc(C)c1)CC2 (stereo unspecified) | ? | -20%
CCOc1ccc(CN2C(=O)c3ccccc3Sc3ccc(C(=O)NCc4ccco4)cc32)cc1 | -2% | -29%
COc1cccc2c1ncc1c(-c3ccc(C)cc3)nn(-c3cccc([N+](=O)[O-])c3)c12 | ? | -22%
CCc1ccc(NC(=O)CN2C(C(=O)OC)=C(c3ccccc3)c3ccccc3S2(=O)=O)cc1 | -8% | -24%
Cc1ccccc1OCc1ccc(-c2nc(C#N)c(N3CCN(C)CC3)o2)o1 | -12% | ?
CCc1ccc(S(=O)(=O)n2ccnc2)cc1 | 0% | 11%
COc1cccc(-n2cc(C(=O)NCc3ccc(C)cc3)c3ccccc3c2=O)c1 | -2% | -18%
Fc1ccccc1N1CCN(c2ncnc3c2nc2n3CCCC2)CC1 | ? | -14%
CCc1cccc(NC(=O)CN(C)S(=O)(=O)c2ccc3c(c2)n(C)c(=O)c(=O)n3C)c1 | 15% | -15%
CCn1cc(C(=O)NCCc2ccc(OC)c(OC)c2)c(=O)c2cc(S(=O)(=O)N3CCC(C)CC3)ccc21 | ? | -4%
O=C(Nc1c2c(nn1-c1ccc(Cl)cc1)CS(=O)(=O)C2)c1ccccc1F | -2% | -19%
COc1ccccc1CNC(=O)C1CCCN(S(=O)(=O)c2ccc3c(c2)CCCN3C(C)=O)C1 (stereo unspecified) | ? | -9%
COc1cccc(NC(=O)Nc2ccc3c(c2)N(C)C(=O)c2ccccc2S3)c1 | -12% | ?
CCCN1C(=O)C(Cc2nc3ccccc3c(=O)n2-c2ccc(OC)cc2)c2cc(C)ccc21 (stereo unspecified) | ? | -29%
CCOC(=O)c1sc(NC(=O)c2nc3ncccn3n2)c(C(=O)OC)c1C | 14% | -3%[11.5 µM]
Cc1ccc(CNC(=O)CCCc2nnc3n(C)c(=O)c4sccc4n23)cc1 | -28% | 2%
CCOC(=O)c1ccc(NC(=O)c2c(NCc3sccc3C)sc3c2CCC(C)C3)cc1 (stereo unspecified) | ? | ?
COc1nc(-c2ccc(C)cc2)ccc1-c1noc(-c2ccccc2Br)n1 | -19% | -5%
COc1ccc(-c2noc(CSc3nc(N)cc(=O)[nH]3)n2)cc1OC | -11% | ?
COc1ccc2c3c1OC1C[C@@H](O)C=C[C@@]31CCN(C)C2 (stereo partly specified) | . | -1%
Cc1ccc(-c2nnc(SCc3ccccc3)o2)cc1 | -7% | 67%[activator]
O=C(CCS(=O)(=O)c1ccccc1)N(Cc1cccnc1)c1nc2c(Cl)cccc2s1 | ? | 3%
CCc1noc(-c2ccc(N(C)Cc3ccc(OC)cc3)c([N+](=O)[O-])c2)n1 | ? | ?
COc1cccc2c1cc1c(=O)n(CC(=O)N3CCN(c4cccc(C)c4)C(C)C3)nc(C)n12 (stereo unspecified) | -17% | -3%
CC(=O)Nc1ccn(C2COC(COC(=O)c3ccccc3)O2)c(=O)n1 (stereo unspecified) | . | -9%
CC(C)c1noc(-c2ccccc2OCC(=O)Nc2ccccc2[N+](=O)[O-])n1 | ? | -19%
CCSC1=NC2(CCN(C(=O)NC3CCCCC3)CC2)N=C1c1ccc(C)cc1 | -41% | -14%[11.5 µM]
COc1cccc2cc(C(=O)NCCc3c(C)[nH]c4ccc(Br)cc34)c(=O)oc12 | -19% | -11%
O=C(Nc1ccccc1F)c1nc(SCc2ccccc2F)ncc1Cl | -10% | 12%
Nc1cccc2c1CN(C1CCC(=O)NC1=O)C2=O (stereo unspecified) | . | 1%

Next section:
SMILES | PMP22 txn | HTT prom inh
CCOc1ccc(CNC(=O)CCC(=O)N2CC(C)Sc3ccccc32)cc1 (stereo unspecified) | 0% | -19%
COCc1cc(C)nc2c1C(=O)NC(c1ccc(F)cc1)N2Cc1ccccc1 (stereo unspecified) | 37% | -18%
O=S(=O)(c1ccccc1)c1nc(-c2cccs2)oc1SCc1ccccc1Cl | -1% | -18%
CCc1ccccc1N(C)C(=O)c1sc2nc3n(c(=O)c2c1C)CCCCC3 | -59% | -2%
CN(C)CCNC(=O)c1ccc2nc(CCc3ccccc3)oc2c1 | -2% | 8%
O=C(CSc1nccn1Cc1ccccc1)Nc1ccc2c(c1)OCCO2 | 2% | 22%
COc1ccc(-c2nc(C)c(CCNC(=O)c3ccco3)s2)cc1 | 12% | 20%
CC(C)c1ccc(NC(=O)c2cc(S(=O)(=O)N(C)C3CCCCC3)ccc2F)cc1 | -101% | ?
CC(=O)Nc1ccc(NC(=O)CSc2nnc3c4cc(Br)ccc4n(C)c3n2)cc1 | -17% | -15%
O=C(CSCc1ccccc1Cl)NCc1ccc(Cl)c(Cl)c1 | -60% | -6%
Cc1ccc(OCC(=O)Nc2ccc3nn(-c4ccc(Cl)cc4)nc3c2)cc1 | 2% | 41%[activator]
Cc1cccc(C)c1NC(=O)CN(Cc1ccc(Br)cc1)S(=O)(=O)c1ccccc1 | -3% | ?
CC1CCc2onc(C(=O)N3CCN(c4ccccc4)CC3)c2C1 (stereo unspecified) | -12% | 8%
OCc1c[nH]c2ccccc12 | . | -8%[116 µM]
Cc1coc2c(C)c3oc(=O)c(CCC(=O)NCCc4ccc(Cl)cc4)c(C)c3cc12 | -13% | -12%

Part of the list above in a different format.
Each structure is followed by: PMP22 txn, HTT prom inh
- CC(C)c1ccc(NC(=O)c2cc(S(=O)(=O)N(C)C3CCCCC3)ccc2F)cc1
    -101%, ?
- CC(=O)Nc1ccc(NC(=O)CSc2nnc3c4cc(Br)ccc4n(C)c3n2)cc1
    -17%, -15%
- O=C(CSCc1ccccc1Cl)NCc1ccc(Cl)c(Cl)c1
    -60%, -6%
- Cc1ccc(OCC(=O)Nc2ccc3nn(-c4ccc(Cl)cc4)nc3c2)cc1
    2%, 41%[activator]
- Cc1cccc(C)c1NC(=O)CN(Cc1ccc(Br)cc1)S(=O)(=O)c1ccccc1
    -3%, ?

(next part)
SMILES | PMP22 txn | HTT prom inh
COc1ccc(-n2nc3cc(C)c(NC(=O)Cc4ccc(Cl)cc4)cc3n2)cc1 | 14% | 7%
CCc1ccc(NC(=O)C(=O)NCC(c2ccc3c(c2)OCO3)N2CCOCC2)cc1 (stereo unspecified) | -2% | -17%
Cc1cccc(NC(=O)Cc2ccc(-n3c(C)nc4cccnc43)cc2)c1C | ? | ?
O=C(CCn1nc(-c2ccc(Cl)cc2)c2ccccc2c1=O)Nc1ccc(OC(F)(F)F)cc1 | -15% | -17%
CC(=O)c1ccc(NC(=O)Cn2c(=O)cc(C)c3c(C)nn(-c4cccc(F)c4)c32)cc1 | -28% | -7%
O=C(Nc1ccc2c(c1)CCCN2C(=O)c1cccs1)c1ccccc1C(F)(F)F | -6% | ?
COc1ccc2c(c1)c1c(c(=O)n(-c3cc(Cl)ccc3C)c(=O)n1CC(=O)N1CCCC1)n2C | ? | -9%
CCOc1cc(CNC(=O)c2ccc(C)c(NC(=O)c3nsc4ccccc34)c2)ccc1OC | -29% | 2%
CC(C)COc1ccc(C(=O)Nc2cc3nn(-c4ccccc4)nc3cc2Cl)cc1 | 14% | -4%
CCOc1ccccc1CNC(=O)c1cnc2sc(N3CCCC3)nn2c1=O | ? | -12%
Cc1ccc(NC(=O)CSc2nc(=O)n(Cc3cccnc3)c3c2CCC3)cc1F | -11% | -20%
Cc1ccc(C2CCN(C(=O)c3cnn(-c4ccccc4Cl)c3C3CCN(C(=O)OC(C)(C)C)CC3)C2)cc1 (stereo unspecified) | ? | ?
CCc1ccc(N(C)S(=O)(=O)c2ccc3[nH]cc(C(=O)NCC4CCCO4)c(=O)c3c2)cc1 (stereo unspecified) | -21% | ?
O=C(CN1CCN(Cc2ccc3c(c2)OCO3)CC1)N1c2ccccc2Sc2ccccc21 | . | 6%
COc1cc(C(=O)NCc2nc(-c3ccc(Cl)cc3)no2)cc(OC)c1OC | -5% | -9%

Overlap with the part before: three entries, followed by the next part.
SMILES | PMP22 txn | HTT prom inh
CCc1ccc(N(C)S(=O)(=O)c2ccc3[nH]cc(C(=O)NCC4CCCO4)c(=O)c3c2)cc1 (stereo unspecified) | -21% | ?
O=C(CN1CCN(Cc2ccc3c(c2)OCO3)CC1)N1c2ccccc2Sc2ccccc21 | . | 6%
COc1cc(C(=O)NCc2nc(-c3ccc(Cl)cc3)no2)cc(OC)c1OC | -5% | -9%
Cc1ccc(C)n1-c1nnc(N2CCC(C(=O)NCc3ccccc3Cl)CC2)s1 | ? | -11%
CCOc1cc(C#N)c(NC(=O)c2ccc(OC)c(S(=O)(=O)N3CCCCC3)c2)cc1OCC | 1% | -13%
Cc1cccc(S(=O)(=O)Nc2cccc(-c3ccc(N4CCCCC4)nn3)c2)c1 | -18% | 1%
COc1ccc(-c2c(C)c3ccc(O)c(CN4CCCC4)c3oc2=O)cc1 | -11% | 4%
CCOc1ccccc1NC(=O)c1cccc2c1C(=O)N(C1CCCCC1)C2 | ? | -2%
COc1cc(C(=O)NCc2nc3cccnc3n2Cc2ccc(C)cc2)cc(OC)c1OC | -16% | -2%
Cc1ccc(NC(=O)c2ccc(CN3CCN(C)CC3)cc2)cc1Nc1nc(-c2cccnc2)cs1 | . | -1%
CCOc1ccc(NC(=O)CSc2nc3c(oc4ccccc43)c(=O)n2-c2ccccc2C)cc1 | -6% | -12%
CCC12CN3CC(C)(CN(C1)C3c1ccccc1C)C2=O (stereo unspecified) | -7% | -7%
